# Mtb hypoxia rep = Mtb hypoxia fluorescent reporter inhibition | M. tuberculosis hypoxia-regulated fluorescent reporter, fluorescence | 300,000 compounds, 0.1% hits | fluorescence inhibition, % (concentration not given with the values);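 active means 35 to 45% if threefold the growth effect, above 45% if 1.5-fold the growth effect; inactive means the rest, general growth blockers included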;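 further: wells of about 50 µL received 100 nL stock; 0% = vehicle wells and 100% = reference inhibitor wells; whole bacteria with a GFP reporter of the hypoxia response; strong numbers were not always called active; many hits fall short of the cut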
# PrP UTR inh = inhibition of PrP 5' UTR reporter expression; cell-based PrP 5' UTR mRNA reporter, plate reader; inhibition, % (test concentration not listed); 340,000 compounds, 0.35% hits;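 active means every replicate at 50% or more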;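 further: 0 = median of the neutral control wells; tested in H4 reporter cells; numbers are from one replicate; inactives centre near -14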
# BJeLR viability = BJeLR cell viability loss; BJeLR (HRASV12) viability, CellTiter-Glo ATP luminescence, 48 h; reference of the scale not given here; inhibition, % (concentration not given with the values); 300,000 compounds, 0.17% hits;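 active means replicate mean above 50%; inconclusive means above 50% but judged a plate artefact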;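 further: 50 nL library stock added to about 25 µL; numbers are from one replicate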
# RN4220 kill = kills Staphylococcus aureus RN4220; AID 1259311; 330,000 compounds, 0.33% hits; S. aureus RN4220 growth, OD600, 16 h; inhibition, % (test concentration not listed);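 active means z-score of -3 or lower and OD600 up to 0.18 on both plates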;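 further: plate controls were untreated cells for no effect and reference antibiotic for full effect; stock transfer was 100 nL into about 80 µL; one replicate is shown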
# ugtP null kill = kills S. aureus RN4220 lacking UgtP | growth inhibition, % (concentration not given with the values) | S. aureus RN4220 ugtP deletion, OD600 growth, 16 h; some inactives read as strong as hits | 330,000 compounds, 0.54% hits;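 active means z-score under -3 and OD600 up to 0.15 on both plates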;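 further: plate controls were untreated wells for no effect and antibiotic for full effect; wells of about 80 µL received 100 nL stock; the first replicate is given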
# Bead autofluor = flagged as autofluorescent in microsphere protease counterscreen; compound autofluorescence counterscreen, microsphere flow cytometry; stronger effect = higher value; fluorescence intensity (test concentration not listed); 360,000 compounds, 3.1% hits;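 active means at least 3 SD above the mean of all compounds, about 16000 in these data; inconclusive means too few beads counted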;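 further: 100 nL of 1 mM stock went into each well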
# Mtb hypoxia rep growth = also measured in Mtb hypoxia rep; calls as there; growth inhibition, %; measured here: M. tuberculosis growth (absorbance);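 0% = vehicle and 100% = reference antibiotic; read after six days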
# Starred values were filed as active, the others as inactive; ? = inconclusive; . = no result given.
SMILES,Mtb hypoxia rep,Mtb hypoxia rep growth,PrP UTR inh,BJeLR viability,RN4220 kill,ugtP null kill,Bead autofluor
CCc1nc(C)ccc1OCC(=O)O,.,.,-9,-4,3.6,-2,3416
O=S(=O)(c1ccc2ccccc2c1)N1CCCCCC1,8,-2,4,0,1.5,4,4219
COC(=O)c1onc(-c2c(OC)cc(OC)cc2OC)c1C(=O)OC,4,3,-14,-11,4.5,0,2571
O=C(COC(=O)c1ccc(O)cc1)Nc1ccccc1[N+](=O)[O-],-2,10,1,5,7.5,6,3298
Cc1ccc(CCCOC(=O)C[N+]2(C)CCOCC2)cc1,.,.,-12,2,1.6,3,4155
CC(C)Cn1cnc2c1c(=O)n(CC(=O)N(C)C)c(=O)n2Cc1ccccc1,10,3,-24,12,3.0,3,3464
Cc1c(C(=O)N2CCCCC2)c(S(=O)(=O)N2c3ccccc3CC2C)c(C)n1C (stereo not drawn),-1,2,-9,-6,3.8,3,5342
S=C(c1ccc(-c2ccc(Cl)cc2Cl)o1)N1CCCCC1,.,.,-112,-3,2.4,2,4168
O=C1c2ccccc2C(=O)N1CCc1csc(NNc2nc(CCN3C(=O)c4ccccc4C3=O)cs2)n1,4,1,-16,8,7.6,23,3181
Cn1c(=O)[nH]c(=O)c2c1nc(N1CCCCC1)n2CC=NNc1ccc(C(=O)O)cc1,11,5,.,.,3.7,10,.
Cc1nc(NC(=O)/C=C/c2ccccc2)n[nH]1,6,-4,-15,-3,8.5,10,2188
CC1(C)CC(=O)C2=C(C1)NC1=C(C(=O)c3ccccc31)C2c1ccc(Cl)cc1 (stereo not drawn),-11,7,-33,-11,-12,-20,1931
CCOc1ccc(C(C)C)cc1S(=O)(=O)N1CCOCC1,8,6,-7,-1,8.8,0,2137
Cc1ccc2nc(N/C(=N/S(=O)(=O)c3cccs3)c3ccccc3Cl)sc2c1,-6,8,-21,24,-4.3,9,4269
CC(=O)NC(c1cc(Cl)c2cccnc2c1O)C(C)C (stereo not drawn),14,11,27,.,3.1,30,2897
CCOCCCn1cnc2c(c1=O)c1nc3ccccc3nc1n2-c1ccc(C)cc1,8,-6,-4,12,3.5,-1,15481
CCN1CCCC1CNS(=O)(=O)c1ccc(C(=O)Nc2ccccc2)cc1 (stereo not drawn),.,.,-1,7,0.7,-2,3432
COc1ccccc1/C=C1\S/C(=N/NC(=O)c2cccc(Br)c2)NC1=O,-82,-14,-9,-17,68,58,4420
CCOC(=O)CN1C(=O)S/C(=C\c2ccc(-c3cccc(C(=O)O)c3C)o2)C1=O,14,8,.,-4,3.8,14,3511
Cc1cc(C)c(C#N)c(SCC(=O)N(C)C2CCCCC2)n1,5,4,-20,-15,2.1,-6,9729
COCCNC(=O)c1c[nH]c2ccc(S(=O)(=O)N3CCc4ccccc43)cc2c1=O,7,6,-12,38,7.6,5,4011
O=C1CC(N2CCN(S(=O)(=O)c3cccc(C(F)(F)F)c3)CC2)C(=O)N1Cc1ccccc1 (stereo not drawn),.,.,-12,4,0.5,2,4777
CCOc1ccc(OCc2cccc(C(=O)N/N=C/c3cccnc3)c2)cc1,.,.,7,9,.,.,8700
COc1ccc(C2CC(=O)Nc3ccccc3S2(=O)=O)cc1OC (stereo not drawn),14,5,-1,.,5.6,0,3301
COCCCN1C(=O)CS/C1=N\S(=O)(=O)c1ccccc1,.,.,-14,2,.,.,4162
CCC(=O)N1c2ccccc2C(N(C(C)=O)c2ccccc2)CC1C (stereo not drawn),7,-1,-22,-8,-1.0,0,9435
O=C1CN(S(=O)(=O)c2ccccc2)c2ccccc2N1,.,.,1,0,.,.,3261
Cc1ccc(-n2cccc2/C=C2/NC(=O)N(CC(=O)Nc3cccc(C)c3)C2=O)cc1,.,.,-7,-17,.,.,2419
CCOC(=O)CSc1nnc(CNC(=O)c2ccco2)n1C,7,4,-8,-6,3.7,10,10381
CN1CCN(c2ccc(NC(=O)c3ccc(-c4cccc([N+](=O)[O-])c4)o3)cc2)CC1,10,-2,-36,2,-0.9,9,3869
Oc1ccccc1OCC(O)c1ccccc1 (stereo not drawn),1,4,-14,-4,15,-2,5546
CCOc1ccc2nc(N3CCCC(C(=O)NCCCN4CC(C)CC(C)C4)C3)sc2c1 (stereo not drawn),6,4,-17,-4,-0.2,0,5854
CCOCCn1c(SCc2ccc(C)cc2)nc2c1c(=O)[nH]c(=O)n2C,0,2,4,-1,14,19,4668
O=C(/C=C\NCC(=O)c1ccccc1)c1ccc(F)cc1,6,11,-49,5,2.1,-3,10872
CSc1ccc(CNC(=O)CCn2ccc3cc(S(=O)(=O)N4CCCC4)ccc32)cc1,5,5,-2,-3,3.7,0,5998
Cc1ccc(-n2cccn2)c(CN2CCCC(C(=O)c3sccc3C)C2)c1 (stereo not drawn),1,13,-35,-18,6.8,3,8877
CCc1c(C)nc2ncnn2c1N1CCC(C(=O)NCc2ccc3c(c2)OCO3)CC1,8,11,-15,-6,7.2,0,20883*
COc1ccc(NC(=O)c2sc3nc(N4CCOCC4)c4c(c3c2N)CCCC4)c(OC)c1,0,-5,0,8,7.3,3,5899
O=C(CN1CCC(n2nnc3cc(F)ccc32)CC1)NCc1ccco1,3,-6,-12,-13,1.1,2,3513
CCc1cc(=O)oc2cc(OCC(=O)N3C[C@H]4C[C@@H](C3)c3cccc(=O)n3C4)ccc12,.,.,-28,0,-4.1,3,5604
O=C(COC(=O)c1cc[n+]([O-])cc1)Nc1ccc(Cl)cc1C(F)(F)F,2,2,-13,-13,4.4,6,4349
c1csc(-c2nnc(-c3ccc(N4CCOCC4)cc3)o2)c1,1,8,6,0,6.3,-7,20353*
Cc1c(C)c2ccc(Oc3ccc([N+](=O)[O-])cc3C(F)(F)F)c(C)c2oc1=O,9,2,12,5,-4.6,-1,4773
Cc1cc(N2CCCC2)ccc1C=Nn1cnnc1,17,6,.,.,-0.8,0,.
Cc1cc(C(=O)CSc2nnc(-c3ccc(F)cc3)o2)c(C)n1CC1COc2ccccc2O1 (stereo not drawn),.,.,-18,-7,23,23,3798
COc1ccc(NC(=O)CSc2nnc(-c3ccccn3)n2N)cc1Cl,3,4,-29,-23,3.9,0,9903
Cc1ccc(S(=O)(=O)Nc2nc(C)c(C)s2)cc1,-1,3,-10,-2,11,-4,6638
Cc1cccc(S(=O)(=O)c2c(N)n(Cc3ccco3)c3nc4ccccc4nc23)c1,-1,8,-16,-12,3.5,-10,10177
CCOC(=O)c1ccc(NC(=O)CCNS(=O)(=O)c2cccs2)cc1,3,8,-23,12,-2.8,12,3818
CCN(C[C@H]1N[C@@](Cc2ccccc2)(C(=O)OC)[C@H]2C(=O)N(Cc3ccccc3)C(=O)[C@@H]12)C(=O)Nc1ccc(C(F)(F)F)cc1,-16,1,-15,.,100*,100*,4027
Cc1cc(OCCN2CCOCC2)nc2ccccc12,.,.,-16,-4,3.3,3,2184
O=C(CN(Cc1ccccc1Cl)C(=O)CCC(=O)Nc1nccs1)NCC1CCCO1 (stereo not drawn),11,9,-10,-4,5.8,8,6139
COc1cc(-c2nc3oc4ccccc4c(=O)c3c(=O)n2Cc2ccco2)cc(OC)c1OC,-69,5,-12,6,8.2,1,6673
Cc1ccc(CNC(=O)C2CCCN(S(=O)(=O)c3c(C)n[nH]c3C)C2)cc1 (stereo not drawn),2,9,-28,-1,1.0,-4,9277
CC(=O)CSc1nnc(-c2ccc(S(=O)(=O)N3CCC(C)CC3)cc2)o1,6,13,.,9,3.4,11,9829
Cc1ccn2c(=O)nc(SCC(=O)NCCc3ccccc3)nc2c1,7,-4,-1,-6,5.9,6,.
O=C(CN1CCCCCC1)Nc1ccc([N+](=O)[O-])cc1Br,7,5,5,-5,4.2,5,4393
OCCN1CCOCCN(CCO)CCOCC1,.,.,-16,-8,3.1,2,3597
Cc1ccc2c(c1)N(C(=O)CCC(=O)N1CCCCC1)CCO2,5,4,0,8,4.2,-4,5542
O=S(=O)(N=C(Sc1ccccc1)c1ccccc1)c1ccccc1,12,4,.,.,-0.3,17,.

# Next part
SMILES,Mtb hypoxia rep,Mtb hypoxia rep growth,PrP UTR inh,BJeLR viability,RN4220 kill,ugtP null kill,Bead autofluor
NNc1nc(-c2ccccc2)cc(-c2ccccc2O)n1,6,6,-22,20,17,5,22292*
COc1ccc(NC(=S)N2CCN(C(=O)C3CCCO3)CC2)cc1 (stereo not drawn),9,2,-8,-1,1.6,10,6017
C=CCNC(=S)Nc1ccccc1,13,3,-15,10,4.6,8,9515
CCCC(=O)Oc1ccc(C2NC(=O)c3ccccc3O2)cc1 (stereo not drawn),2,-3,-18,-3,5.4,13,.
Cc1ccc(NC(=O)CCC(=O)Nc2ccc(C)cc2)cc1,10,9,-29,5,1.6,17,3810
Cc1cc(F)ccc1NC(=S)NCCc1ccccc1,-6,-5,-1,9,-5.0,-6,?
Cn1c(=O)c2c(nc(CN3CCOCC3)n2CCCO)n(C)c1=O,8,6,-25,-5,6.5,-7,9893
Cc1cc(C)n(C(=O)c2ccc([N+](=O)[O-])c(Cl)c2)n1,0,-8,-37,-8,1.9,6,2034
COc1ccc(-c2nn(CCC#N)cc2C(=O)Nc2ccc(C(C)=O)cc2)cc1[N+](=O)[O-],0,9,-30,-7,4.8,9,4169
COc1cc2[nH]c(=O)n(CCCCCC(=O)NC3CCCC3)c(=O)c2cc1OC,-6,8,-8,0,-4.2,-3,5900
Cc1ccc(C)c(S(=O)(=O)N2CCN(C(=O)CNC(=O)c3ccc4ccccc4c3)CC2)c1,13,1,-25,12,-2.3,8,6254
CCN(CC)C(=O)COC(=O)c1cc(-c2ccc(OC)cc2)nc2ccccc12,1,-5,0,8,2.6,14,9799
Cc1scc(C(=O)N2CCN(c3ccc(Cl)cc3)CC2)c1C,0,7,-16,-5,15,6,3224
C=CCNC(=O)C(=O)NCC1CCCN1S(=O)(=O)c1cccs1 (stereo not drawn),-2,-6,-8,1,5.5,0,7537

# Molecules from the list above with two or more sulfur atoms (9):
SMILES,Mtb hypoxia rep,Mtb hypoxia rep growth,PrP UTR inh,BJeLR viability,RN4220 kill,ugtP null kill,Bead autofluor
O=C1c2ccccc2C(=O)N1CCc1csc(NNc2nc(CCN3C(=O)c4ccccc4C3=O)cs2)n1,4,1,-16,8,7.6,23,3181
Cc1ccc2nc(N/C(=N/S(=O)(=O)c3cccs3)c3ccccc3Cl)sc2c1,-6,8,-21,24,-4.3,9,4269
COCCCN1C(=O)CS/C1=N\S(=O)(=O)c1ccccc1,.,.,-14,2,.,.,4162
CSc1ccc(CNC(=O)CCn2ccc3cc(S(=O)(=O)N4CCCC4)ccc32)cc1,5,5,-2,-3,3.7,0,5998
Cc1ccc(S(=O)(=O)Nc2nc(C)c(C)s2)cc1,-1,3,-10,-2,11,-4,6638
CCOC(=O)c1ccc(NC(=O)CCNS(=O)(=O)c2cccs2)cc1,3,8,-23,12,-2.8,12,3818
CC(=O)CSc1nnc(-c2ccc(S(=O)(=O)N3CCC(C)CC3)cc2)o1,6,13,.,9,3.4,11,9829
O=S(=O)(N=C(Sc1ccccc1)c1ccccc1)c1ccccc1,12,4,.,.,-0.3,17,.
C=CCNC(=O)C(=O)NCC1CCCN1S(=O)(=O)c1cccs1 (stereo not drawn),-2,-6,-8,1,5.5,0,7537

# Some of the entries so far, field by field.
CCCC(=O)Oc1ccc(C2NC(=O)c3ccccc3O2)cc1 (stereo not drawn)
  Mtb hypoxia rep: 2	Mtb hypoxia rep growth: -3	PrP UTR inh: -18	BJeLR viability: -3	RN4220 kill: 5.4	ugtP null kill: 13	Bead autofluor: .
Cc1ccc(NC(=O)CCC(=O)Nc2ccc(C)cc2)cc1
  Mtb hypoxia rep: 10	Mtb hypoxia rep growth: 9	PrP UTR inh: -29	BJeLR viability: 5	RN4220 kill: 1.6	ugtP null kill: 17	Bead autofluor: 3810
